Screens as filed in PubChem.
SARS PLP yeast: qHTS of Yeast-based Assay for SARS-CoV PLP; S. cerevisiae expressing SARS-CoV PLpro, growth rescue; control for the full effect not named in the record; Potency, µM (doses to about 32.9 µM), without a hit: at the top dose activity, positive = growth rescue; hit rate 0.19% among 330,000; AID 485353, 2010; also: 0% is about no effect; nearly all actives have a fitted effect of over 55% in size; growth read by luminescence after 48 h
RE007 growth inh: qHTS Assay for Inhibitors of the HIV-1 protein Vpr; S. pombe RE007 Vpr strain, BacTiter-Glo ATP luminescence, 24 h; control for the full effect not named in the record; Potency, µM (titrated, usually from 92.2 µM), for the others: at the highest dose activity change, negative = less growth; hit rate 0.21% among 360,000; AID 651644, 2012; active = well fitted falling curve with a large enough effect; inconclusive = small, poorly fitted or top-dose-only effect; inactive = no such curve, though single readings can be large or run the other way;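 also: % is scaled to controls: 0 for no effect and ±100 for the full control effect; nearly all actives have a fitted effect of over 50% in size; the assay follows cell death caused by Vpr and the record does not say whether a fall means rescue or toxicity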
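Fission yeast strain RE007, carrying one chromosomally integrated HIV-1 vpr copy, was seeded at OD 0.01 in PMG+AL medium with 23 nL pinned compound. After 24 h at 30 °C and 99% humidity, viability was read by BacTiter-Glo luminescence.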
Cruzain inh noDet: qHTS Assay for Promiscuous and Specific Inhibitors of Cruzain (without detergent); Potency, µM, without a hit: max response, negative = inhibition, actives largely listed as inhibitors; AID 1476, 2009; purified cruzain, Z-FR-AMC fluorescence, no detergent; Cruzipain (Trypanosoma cruzi), P25779; hit rate 2.3% among 200,000; active = well fitted curve in the direction sought with a large enough effect; inconclusive = small, poorly fitted or top-dose-only effect, or another doubt; inactive = no such curve, though single readings can be large; an effect the other way counts as inactive or inconclusive;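 also: plate controls were enzyme without inhibitor for no effect and buffer without enzyme for full effect; nearly all actives have a fitted effect of over 40% in size; top concentration of the series not given in the record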
Target sequence (P25779 123-467 limits assumed): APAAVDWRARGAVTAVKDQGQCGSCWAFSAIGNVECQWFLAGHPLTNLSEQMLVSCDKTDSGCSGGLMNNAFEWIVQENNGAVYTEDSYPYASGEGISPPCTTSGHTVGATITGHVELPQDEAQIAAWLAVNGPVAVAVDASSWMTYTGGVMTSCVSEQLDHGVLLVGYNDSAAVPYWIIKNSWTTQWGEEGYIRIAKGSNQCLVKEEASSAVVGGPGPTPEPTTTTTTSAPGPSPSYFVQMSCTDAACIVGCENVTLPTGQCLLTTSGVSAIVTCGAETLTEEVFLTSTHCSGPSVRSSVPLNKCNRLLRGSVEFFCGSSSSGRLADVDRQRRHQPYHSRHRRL
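Purified cruzain at 1.5 nM, pre-incubated 15 min with compound at room temperature in 100 mM sodium acetate pH 5.5, 5 mM DTT, 0.00005% Triton X-100. Reaction started with 2 uM Z-FR-AMC; AMC fluorescence increase over 60 s gives rate.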
Marburg entry inh: qHTS for inhibitors of binding or entry into cells for Marburg Virus | Marburg virus pseudotyped entry inhibition, cell reporter; control for the full effect not named in the record; about a third of the inactives were read at about 46 µM | hit rate 1.8% among 300,000 | Potency, µM (series often up to 37.8 µM), without a hit: at the highest dose activity change, negative = inhibition, hits mostly inhibitors; active = well fitted inhibition curve with a large enough effect; inconclusive = small, poorly fitted or top-dose-only effect, or effect the other way; inactive = flat fitted curve, though single readings scatter; tested in HEK293 cells; about a fifth of its hits are not listed in these tables; also: % is scaled to controls: 0 for no effect and ±100 for the full control effect; luciferase read-out
2A StopGo: High Throughput Screening for Foot and Mouth Disease Virus Antivirals; human cells with a luciferase reporter of 2A StopGo recoding; control for the full effect not named in the record; Potency, µM (highest dose often 57.9 µM), inactives show at the highest dose signal change, negative = less light; hit rate 1.2% among 410,000; active = well fitted falling curve with a large enough effect; inconclusive = small, poorly fitted or top-dose-only effect; inactive = no such curve, though single readings can be large or run the other way; tested in HEK293T cells; also: % is scaled to controls: 0 for no effect and ±100 for the full control effect; nearly all actives have a fitted effect of over 45% in size; luciferase light after 4 h
Cruzain inh Det: qHTS Assay for Promiscuous and Specific Inhibitors of Cruzain (with detergent); purified cruzain, Z-FR-AMC fluorescence, 0.01% Triton; Potency, µM, for the others: max response, negative = inhibition, hits mostly inhibitors; hit rate 0.43% among 200,000; active = well fitted curve in the direction sought with a large enough effect; inconclusive = small, poorly fitted or top-dose-only effect, or another doubt; inactive = no such curve, though single readings can be large; an effect the other way counts as inactive or inconclusive;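 also: plate controls were neutral wells for no effect and buffer without enzyme for full effect; nearly all actives have a fitted effect of over 40% in size; top concentration of the series not given in the record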
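In this qHTS format, compounds are incubated with 1.5 nM cruzain for 15 min at room temperature before 2 uM Z-FR-AMC is added. Release of AMC is followed at 360/450 nm, and progress is taken as the 60 s fluorescence difference.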
NS1 function inh: qHTS Assay for Inhibitors of Influenza NS1 Protein Function; hit rate 0.4% among 270,000; AID 2326, 2010; Potency, µM (highest dose often 46.1 µM), inactives show top-dose activity, positive = more growth; S. cerevisiae slowed by influenza A NS1, growth recovery by OD600; also: actives are rising curves; nearly all actives have a fitted effect of over 50% in size
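Recovery from NS1-induced slow growth read by OD600 in budding yeast switched to galactose assay medium (pH 6.0, -URA) at 1:100 dilution. Compound 23 nl per well; the matching strain lacking NS1 serves as control.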
LASV entry inh: qHTS for Inhibitors of binding or entry into cells for Lassa Virus. Lassa virus pseudotype entry inhibition, cell reporter; control for the full effect not named in the record. Potency, µM (highest dose often 37.9 µM), for inactives: at the highest dose activity change, negative = inhibition, actives largely listed as inhibitors. hit rate 1.2% among 300,000. AID 540256, 2011; active means well fitted inhibition curve with a large enough effect; inconclusive means small, poorly fitted or top-dose-only effect, or effect the other way; inactive means flat fitted curve, though single readings scatter; tested in HEK293 cells; also: % is scaled to controls: 0 for no effect and ±100 for the full control effect; nearly all actives have a fitted effect of over 50% in size; luciferase read-out
An asterisk follows results filed as active; ? = inconclusive; / = not tested or not shown; [ ] = another dose, or the depositor's remark. Unless noted, calls follow the shape of the dose curve; as a rule, active means well fitted rising curve with a large enough effect; inconclusive means small, poorly fitted or top-dose-only effect; inactive means no such curve, though single readings can be large or run the other way. Potency is read from the fitted curve at half-maximal effect.

Structure	SARS PLP yeast	2A StopGo	Cruzain inh noDet	LASV entry inh	Marburg entry inh	NS1 function inh	RE007 growth inh	Cruzain inh Det
O=Cc1coc2ccc3ccccc3c2c1=O	-25.8%	-6.2%	/	-0.5%	?	-93.4%	?	/
CCCCCn1c(=O)c(C(=O)Nc2cccc(C)n2)c(O)c2ccccc21	-0.4%	-18.3%	/	?	?	10.1%	3.9%	/
CCOC(=O)c1c(C)[nH]c(C(=O)CN2CCN(CC)CC2)c1C	-4.1%	17.7%	/	/	/	-5.2%	-13.0%	/
CCS(=O)(=O)CCSc1nc(-c2ccc(Br)cc2)cc(-c2ccccc2)c1C#N	/	-24.5%	-9.1%	15.9%[46.1 µM]	/	/	/	-1.5%
CCOc1ccc(NC2=C(Cl)C(=O)N(Cc3ccccc3)C2=O)cc1	-11.5%	/	7.1%	-12.5%	-36.1%	9.5%	-3.6%	-4.7%
Cc1cccc(C)c1Nc1nnc(SC/C(O)=C(\C#N)c2nc3ccccc3[nH]2)s1	8.0%	-7.2%	?	19.4%	-11.7%	?	6.9%	-8.4%
CCC1(O)CCC2C3CCC4=CC(=O)CCC4C3CCC21CC (configuration not stated)	/	?	/	-17.6%	?	/	-9.0%	/
COc1ccc(-n2cccc2C=O)cc1OC	6.3%	-20.4%	0.3%	23.0%	2.8%	3.0%	-0.2%	4.0%
Cc1cccc(OCC(=O)Nc2ccc3c(c2)nc(CCN2CCC(C)CC2)n3C)c1	-11.0%	-16.4%	/	/	/	0.3%	-9.6%	/
O=C(Cn1cnc2ccccc2c1=O)N1CCN(Cc2ccc3c(c2)OCO3)CC1	-3.3%	0.0%	-4.5%	-9.2%	15.5%	4.3%	2.3%	-1.0%
O=C(CN1CCc2ccccc2C1)Nc1ccc(F)cc1	-8.3%	10.3%	/	/	/	0.4%	-6.4%	/
O=C(NCc1ccc(F)cc1)c1ccc2c(c1)nc1n2CCCCC1	/	37.5%[activator]	-7.3%	17.8%[46.1 µM]	/	/	/	-0.5%
C=CCn1c(=NC(=O)c2ccc(S(=O)(=O)N3CCCc4ccccc43)cc2)sc2cc(S(N)(=O)=O)ccc21	11.3%	-21.2%	?	-1.5%	?	?	-23.0%	-3.6%
Cc1ccc(NS(=O)(=O)c2ccc(C(=O)Nc3nncs3)cc2)cc1	-7.2%	-8.5%	/	?	-24.7%[46.1 µM]	/	-1.8%	/
Cc1nnc(NC(=O)c2ccc3nccnc3c2)s1	-1.0%	8.2%	/	1.5%	?	/	-0.1%	/
COc1ccc(CCNC2CCC(c3ccccc3)CC2)cc1 (configuration not stated)	2.8%	-12.3%	/	-21.6%	?	-2.8%	-6.6%	/
COc1ccc(C(=O)CN2C(=O)NC3(CCCCCC3)C2=O)c(OC)c1	1.4%	25.1%	/	6.1%[46.1 µM]	?	/	-22.9%	/
CCC1(CC)C(C#N)C(=O)NC(=O)C1C#N (configuration not stated)	/	15.6%	/	?	-0.1%[46.1 µM]	/	-7.4%	/
COc1cc(C)c(C(C)C)cc1S(=O)(=O)NC1CC(C)(C)NC(C)(C)C1	-9.8%	62.1%[activator]	/	?	?	12.2%	-18.0%	/
CCCSc1nc2sc3c(c2c(=O)n1Cc1ccccc1)CC(C)(CC)OC3 (configuration not stated)	/	-5.1%	8.1%	?	/	/	/	-2.1%
Cc1ccc(S(=O)(=O)N(CC(O)CN2CCCC2)c2ccccc2)cc1 (configuration not stated)	0.7%	/	0.7%	3.0%	-22.2%	6.9%	3.7%	4.4%
Cc1cc(C)[n+]2[nH]c(N)c(N=Nc3ccccc3)c2n1	-1.8%	0.0%	/	-2.7%	-2.3%[46.1 µM]	-31.8%	?	/
Cc1ccccc1-c1nc(-c2ccc(Br)o2)no1	-1.0%	4.5%	/	2.1%[46.1 µM]	?	-29.6%	5.7%	/
Cc1ccc(NC(=O)C(=Cc2ccc(C(=O)O)cc2)C(=O)Nc2ccc(C)cc2C)c(C)c1	-1.3%	11.2µM*	/	/	/	-0.1%	3.5%	/
O=C(O)C1CCN(c2ccc(S(=O)(=O)N3CCCCC3)cc2[N+](=O)[O-])CC1	-6.2%	-15.7%	/	-3.4%	3.6%	/	3.3%	/
CC(C)c1c(C(=O)N/N=C/c2ccsc2)nnn1-c1nonc1N	-3.9%	23.7%	/	/	/	-11.3%	-11.8%	/
S=c1nc(-c2ccccc2Br)[nH][nH]1	?	/	-9.6%	10.1%	20.7%	21.1%	32.8%	0.2%
CCC1CN(C(=O)N2CCC(C(=O)NCCc3ccccc3Cl)CC2)c2cc(C)ccc2O1 (configuration not stated)	/	?	-22.3%	?	/	/	/	-6.9%
C=CCNc1oc(Cc2cccc3ccccc23)nc1C#N	-17.7%	-15.1%	6.7%	/	/	-105.5%	3.4%	-10.8%
COc1ccccc1CN1CCNC(=O)C1CC(=O)N(C)CC1CCOCC1 (configuration not stated)	-1.6%	-5.1%	/	?	6.0%[46.1 µM]	-0.8%	-4.8%	/
CCOc1ccc(C(=O)Nc2ccc(NC(=O)c3cccs3)cc2)cc1[N+](=O)[O-]	3.98µM*	-14.3%	7.94µM*	-10.8%	-9.1%	5.6%	-0.1%	3.6%
Fc1cccc(/C=C2\CCCC3=C2NC(=S)NC3c2cccc(F)c2)c1 (configuration not stated)	0.4%	-27.6%	/	/	/	7.0%	-13.8%	/
Cc1cccc(NC(=S)NNC(=O)c2cccc([N+](=O)[O-])c2)c1	-0.5%	8.1%	/	11.7%	17.6%[46.1 µM]	-3.8%	-20.0%	/
CN(C)S(=O)(=O)c1cccc(NC(=S)N/N=C/C(c2ccccc2)c2ccccc2)c1	-2.9%	4.4%	31.6µM*	-17.4%	-1.4%	17.7%	-17.1%	-4.8%
CC(C)(C)n1cnc2cc(NC(=O)c3ccccc3)ccc21	-5.9%	35.8%[activator]	/	?	?	-22.0%	6.1%	/
Cc1cc2cc(CNC(=O)c3ccc(Br)o3)ccc2[nH]1	1.6%	26.7%	/	/	/	-0.3%	-2.9%	/
CCc1cccc(C)c1Nc1c(-c2ccsc2)nc2ncccn12	/	-14.0%	-0.9%	8.3%[46.1 µM]	-6.9%[46.1 µM]	/	/	-8.9%
CCOC(=O)c1ccc(NC(=O)c2csc3c2CCCC3)cc1	/	-0.2%	-9.1%	/	21.4%[46.1 µM]	/	/	0.3%
OC(COc1ccc2ccccc2c1Br)Cn1ccnc1 (configuration not stated)	-3.8%	?	-3.2%	2.9%	-8.2%	-72.9%	-10.5%	-2.5%
CC(C)C(C(=O)O)N1C(=O)/C(=C/C=C/c2ccco2)SC1=S (configuration not stated)	16.8%	0.0%	?	-3.0%	?	15.2%	-21.5%	-18.4%
Cn1c(S(=O)(=O)Cc2ccc(Cl)cc2)nc2ccccc21	-1.3%	0.2%	/	/	/	5.2%	4.0%	/
Cc1ccc(C)c(NC(=S)N2CCC(c3nc4ccccc4s3)CC2)c1	-5.5%	-28.1%	6.7%	?	-3.6%	11.3%	3.9%	-1.8%
CCCCn1c(N)c(N2CCOCC2)c(=O)n(CC(=O)NC(C)c2ccccc2)c1=O (configuration not stated)	-0.3%	-2.7%	/	3.3%	-17.1%[46.1 µM]	/	11.2%	/
Cc1cc(C)cc(N(CC(=O)NC2CCC(C)CC2)S(=O)(=O)c2c(C)[nH]c(=O)[nH]c2=O)c1 (configuration not stated)	1.3%	-15.7%	/	/	/	-10.8%	7.5%	/
COc1cc(C(O)P(=O)(OC(C)C)OC(C)C)cc(OC)c1OC (configuration not stated)	2.7%	3.8%	6.4%	?	19.8%	6.0%	-10.9%	2.8%
CCC(=O)c1cn(CC(=O)Nc2cccc(C)c2)c2ccccc12	-4.8%	-9.1%	/	/	/	14.9%	-8.3%	/
Cc1cc(C)n(Cc2ccc(NC(=O)c3nn(C)cc3[N+](=O)[O-])cc2)n1	9.5%	-27.6%	-3.3%	-0.2%	-11.9%	9.5%	0.4%	3.2%
O=C(NC(=S)Nc1ccccc1N1CCCC1)c1ccc(-c2cccc([N+](=O)[O-])c2)o1	-0.6%	-9.3%	5.01µM*	17.0%	-0.8%	?	-5.8%	-9.9%
COc1nc(NCC(C)C)nc(Oc2ccc(=O)n(-c3ccccc3)n2)n1	-2.3%	-6.4%	-5.5%	/	/	-3.9%	17.0%	0.5%
COC(=O)c1cc2sc(C)cc2n1Cc1ccc(F)cc1Cl	/	-11.2%	5.4%	/	-22.2%[46.1 µM]	/	/	0.2%
Cn1c(C(C#N)C2=C(Cl)C(=O)N(c3ccccc3)C2=O)nc2ccccc21 (configuration not stated)	-14.9%	/	20.3%	/	-2.8%	-44.3%	/	-17.0%
Cc1nn(CC(=O)Nc2ccc(C(=O)N3CCCC3)cc2)c(=O)c2ccccc12	1.8%	-2.1%	-3.6%	-5.8%	11.2%	-3.0%	-3.7%	2.7%
Cc1cc(NS(=O)(=O)c2ccc3nc(-c4ccccc4)[nH]c3c2)ccc1Br	/	13.9%	-16.0%	-18.2%[46.1 µM]	1.1%[46.1 µM]	/	/	-6.2%
O=C(CCN1C(=O)/C(=C/c2ccccc2F)SC1=S)NCCCn1ccnc1	-0.1%	-1.8%	/	/	/	-1.6%	-8.2%	/
